RanGTP-Impb inh: disruptors of Ran-importin-beta complex formation – biochemical, FRET, CFP-Ran, YFP-importin-beta, homogeneous, primary screen. cell-free CFP-Ran/YFP-importin-beta FRET ratio. inhibition, % (no concentration beside the values). actives 1.1% (n = 300,000);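 active = most replicates above 15%; inconclusive = exactly half above 15%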;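 note: 0% = DMSO wells and 100% = Ran loaded with GDP instead of GTP; wells of about 40 µL received 100 nL stock; the first replicate is given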
T cruzi inh: blocks replication of Trypanosoma cruzi; T. cruzi beta-gal in NIH3T3, luminescence, 90 h; inhibition, % (no concentration beside the values); actives 1.4% (n = 300,000); AID 1885;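 active = mean inhibition across valid replicates above about 55%, limit read from the data; inconclusive = mean below that limit but half or more replicates reach it; inactive = mean below it, under half of replicates reach it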;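 note: signal also drops with host cell toxicity which is not excluded here; 0% = plate median of DMSO wells and 100% = zero luminescence signal; higher percent means less beta-gal luminescence so fewer parasites; stock transfer was 50 nL into about 50 µL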
Calb FLC: C. albicans growth modulation with fluconazole | C. albicans CaCi-2 (fluconazole-resistant clinical isolate) + fluconazole, Alamar Blue growth, 48 h | growth inhibition, % (no concentration beside the values) | actives 0.57% (n = 300,000) | AID 1979;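 active = most replicates above 75%; inconclusive = exactly half above 75%; inactive = most below 75%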;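 note: all wells also contain fluconazole at 8 µg/ml as a sub-toxic cotreatment; 0% = median of DMSO wells and 100% = median of geldanamycin control wells; wells of about 8 µL received 7.5 nL stock; the first replicate is given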
Ecoli rRNA inh: inhibits bacterial ribosomal RNA function over humanized ribosomes; E. coli WT GFP vs humanized-ribosome RFP mutants, fluorescence, 24 h; active compounds read low; DMSO median 0, no signal -100; GFP signal change (wild-type ribosome), % (test concentration not listed); actives 1.6% (n = 350,000);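 active = significant combined selectivity score with lowered wild-type GFP, culture density cut under 30%, mutant RFP and density less affected; inactive = any of these conditions unmet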; note: one replicate is shown; some compounds called inactive have numbers as strong as hits
AF4-AF9 inh: inhibitors of human MLL-AF4/AF9 interaction. P42568. AlphaScreen, biotin-AF4 peptide binding to FLAG-AF9. inhibition, % at 10 µM. actives 0.47% (n = 350,000);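 active = every replicate reaching a set inhibition limit, whatever the replicate mean, cut at about 25% in these data; inconclusive = mean inhibition reaches that limit but some replicates miss it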;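 note: 0% = plate neutral control median and 100% = total signal loss; the record names both 10 and 1 µM as test concentration; the first replicate is given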
Target sequence (P42568 whole entry, looked up): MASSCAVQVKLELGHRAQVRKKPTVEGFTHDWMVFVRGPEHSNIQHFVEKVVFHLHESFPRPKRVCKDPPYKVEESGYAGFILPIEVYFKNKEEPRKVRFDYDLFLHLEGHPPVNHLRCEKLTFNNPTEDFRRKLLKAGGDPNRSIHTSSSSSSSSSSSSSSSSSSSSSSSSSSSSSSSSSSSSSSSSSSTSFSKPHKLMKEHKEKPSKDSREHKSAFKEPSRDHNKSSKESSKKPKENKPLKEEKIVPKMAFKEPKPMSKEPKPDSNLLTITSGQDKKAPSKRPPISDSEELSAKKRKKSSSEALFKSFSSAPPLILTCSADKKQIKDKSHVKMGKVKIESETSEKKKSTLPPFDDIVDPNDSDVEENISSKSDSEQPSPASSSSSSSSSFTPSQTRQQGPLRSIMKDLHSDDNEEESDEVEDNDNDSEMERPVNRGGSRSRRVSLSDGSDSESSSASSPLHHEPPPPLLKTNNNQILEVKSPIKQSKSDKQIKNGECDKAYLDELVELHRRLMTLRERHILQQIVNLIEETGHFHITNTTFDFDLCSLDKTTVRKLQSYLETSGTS
Vif TR-FRET: HIV-1 Vif–A3G interaction blockers – biochemical, TR-FRET, GST-Vif 1-94, biotin-A3G peptide, dose response retest, primary screen (AID 1117319) | inhibition, %; hits with a dose series show IC50 in µM | actives 0.57% (n = 260,000) | TR-FRET GST-Vif / biotin-A3G peptide binding; higher % means a stronger effect; test concentration not given here; strong numbers were not always called active;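 active = above the screen mean plus three standard deviations and confirmed in dose response; inconclusive = results disagree or hit not tested in dose response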;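 note: Vif residues 1-94 fused to GST binding biotinylated APOBEC3G peptide 110-148; 0% = full assay without inhibitor and 100% = GST in place of GST-Vif; retest series ran down from 100 µM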
Bfl-1 A1 inh: inhibitors of the anti-apoptotic protein A1, read as caspase activation; MEF A1-2A-BIM cells, Caspase-Glo 3/7 luminescence, 3 h; percent of clofoctol response, vehicle zero; caspase activation, % (test concentration not listed); actives 0.066% (n = 330,000); AID 2462;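 active = over half of replicate activation scores above 10%, or exactly half above 10 with the replicate mean above 10; inconclusive = replicate mean below 10 yet half the replicates above 10; inactive = over half of replicates below 10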;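 note: wells of about 30 µL received 50 nL stock; many hits fall short of the cut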
Beta cell apopt: beta cell apoptosis inhibition | INS-1E cytokine-induced death, ATP luminescence, 48 h; percent of positive-control rescue, neutral wells zero | protection from apoptosis, % (test concentration not listed) | actives 0.8% (n = 300,000);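 active = all replicates at 75% or more, or half of them and the mean; inconclusive = half reach 75% but not the mean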;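 note: 0% = cytokine-treated negative control wells and 100% = positive control rescue; higher means more ATP so stronger rescue from cytokine killing; wells of about 40 µL received 100 nL stock; the first replicate is given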
Ecoli rRNA inh OD600: also measured in Ecoli rRNA inh; calls as there; OD600 change, %; measured here: OD600 growth;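 optical density of the mix in the first replicate; 0 = DMSO median and -100 = no signal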
Ecoli rRNA inh RFP: further read-out of Ecoli rRNA inh, marked with its call; RFP signal change, %; measured here: RFP humanized mutant strains;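 first replicate; 0 = DMSO median and -100 = no signal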
Starred values were filed as active, the others as inactive; ? = inconclusive; . = no result given; & = joins results of further samples. These rows are one share of the data; the hit share may differ from the screen's.

cpd	Compound	RanGTP-Impb inh	T cruzi inh	Calb FLC	Ecoli rRNA inh	Ecoli rRNA inh OD600	Ecoli rRNA inh RFP	AF4-AF9 inh	Vif TR-FRET	Bfl-1 A1 inh	Beta cell apopt
1	O=C(Nc1ccccc1)c1ccc2c(c1)CCN2S(=O)(=O)c1ccccc1	1.2	16	16	-47	-46	-13	-2.6	-3%	-0.2	4
2	CC(NCc1ccc(S(N)(=O)=O)cc1)C(=O)Nc1ccc([N+](=O)[O-])cc1Cl (stereo unspecified)	-1.7	8	3	6	-4	-1.6	6.2	6%	-0.5	-4
3	COc1ccc(NS(=O)(=O)c2cc3c(cc2C)N(C(C)=O)CCO3)c(OC)c1	1.8	2	-3	5	10	2.4	-9.7	.	?	3
4	CCOC(=O)c1c(C)c(C(=O)OCC)n(C)c1C	-2.9	1	-6	7	7	0.1	-4.1	1%	0.1	-4
5	COC(=O)[C@]1(C)N[C@H](CN(C)C(=O)Nc2ccc(Cl)cc2)[C@@H]2C(=O)N(C)C(=O)[C@@H]21	.	.	.	9	8	-0.4	-0.6	0%	1.2	0
6	CSc1nc2nccc(/C=C\c3ccccc3)n2n1	1.2	2	67	.	.	.	.	6%	0.9	-15
7	CN(C)/C=C/c1onc(-c2c(F)cccc2Cl)c1C#N	1.3	-4	-18	5	0	3.2	0.4	-2%	-0.3	1
8	CC(=O)c1ccc(NC(=O)Nc2ncn(Cc3cccc(C)c3)n2)cc1	-1.8	-1	-8	.	.	.	.	21%	-1.0	10
9	N=c1c[n+](-c2ccc(Cl)cc2)[n-]o1	-1.1	2	-3	.	.	.	.	-1%	-0.9	-6
10	C=CCc1cc(C=O)cc(OC)c1OCc1ccc(C(=O)O)cc1	-4.6	-29	-6	0	-2	6.1	0.9	19%	0.1	.
11	COc1cccc(-c2nc(CS(=O)(=O)CC(=O)Nc3ccccc3C)c(C)o2)c1	0.2	11	5	13	10	-0.9	-1.4	.	0.5	-1
12	Cc1nnsc1C(=O)N1CCCC(Nc2ccc(F)c(F)c2)C1 (stereo unspecified)	-2.7	7	3	-1	-11	-1.2	-11	.	-1.1	.
13	CC(C)CC(=O)OC(C)(C)[C@@H]1Cc2c(ccc3ccc(=O)oc23)O1	.	.	.	-34	-55	-14	-5.7	.	0.2	-7
14	COc1ccccc1NC(=O)CCN1C(=O)c2ccccc2S1(=O)=O	-4.6	.	6	5	4	9.9	-0.9	-4%	-0.4	2
15	O=C(NC(Cc1c[nH]c2ccccc12)C(=O)O)c1ccccc1 (stereo unspecified)	1.1	-12	2	.	.	.	.	-1%	-0.3	-3
16	CCc1cccc(NC(=O)Cc2ccc([N+](=O)[O-])cc2)c1	6.1	-3	-19	.	.	.	.	.	-2.0	0
17	CCn1c(SCC(=O)N/N=C/C=C/c2ccco2)nnc1-c1ccc(OC)cc1	0.0	-5	-8	.	.	.	.	.	-0.4	-6
18	CC[C@]12c3[nH]c4ccccc4c3CCN1C(=O)C(CC(=O)NCc1ccc(OC)c(OC)c1)C[C@@H]2C(=O)N1CCN(C(=O)C2CC2)CC1 (stereo partly specified)	.	.	.	14	2	1.8	-0.7	4%	-1.3	0
19	CNC(=O)/C(=C/c1ccc2c(c1)OCO2)NC(=O)c1ccc(Br)cc1	5.4	13	-3	.	.	.	.	?	1.6	-4
20	Cc1ccc(N2C(=O)S/C(=C/c3cn(C)c4ccccc34)C2=O)cc1	-2.0	26	34	5	9	6.0	-3.4	-3%	0.1	3
21	CCOc1ccc(N(Cc2cc3cc(C)ccc3[nH]c2=O)C(=O)COC)cc1	7.5	0	-5	8	1	3.0	0.6	.	1.3	-6
22	COc1ccccc1C(=O)N/C(=C/c1ccco1)C(=O)Nc1cccc(C(=O)O)c1	4.7	-7	-6	30	6	2.6	-1.8	16%	-0.4	-4
23	C/C(=N/NC(=O)c1ccccc1)C(=O)O	-3.4	-5	2	8	4	-1.8	-1.2	6%	-0.4	-4
24	Cc1cccc(C)c1NC(=O)CN(C)C(=O)c1ccc(N2C(=O)CCC2=O)cc1	-2.9	-8	-13	11	16	-1.0	-1.8	-2%	0.3	0
25	CN(C)c1ccc(/C=N/OC(=O)Nc2ccccc2)cc1	0.6	-21	-16	-7	10	-1.0	3.2	0%	-7.4	4
26	O=C(Nc1ncccn1)C1CCCN1S(=O)(=O)c1ccc(Cl)c(Cl)c1 (stereo unspecified)	1.9	8	10	1	7	-6.8	1.4	-1%	0.3	1
27	C/C(=N\NC(=O)c1cccc(Cl)c1)C1C(=O)c2ccccc2C1=O	1.2	13	-16	-21	-33	6.4	5.5	31%	-6.4	10
28	CCOC(=O)c1cc(NC(=O)OC)c(C)nc1C	-3.4	-3	-4	.	.	.	.	?	0.1	1
29	CC(C)(C)OC(=O)N[C@@H](Cc1ccccc1)C(=O)N1CCC(C(=O)O)CC1	-1.1	3	-2	.	.	.	.	-9%	0.5	1
30	COc1cc2sc(C)nc2c2sccc12	-24	5	4	.	.	.	.	0%	0.4	-4
31	Cc1ccc(N(C(=O)CS(=O)CC(=O)Nc2ccc(F)cc2)C(C)C(=O)NC(C)(C)C)cc1 (stereo unspecified)	1.8	10	4	1	3	-3.2	-3.7	.	-0.3	3
32	Cc1ccc(Oc2ccc(OCC(=O)OC3CCS(=O)(=O)C3)cc2)cc1 (stereo unspecified)	1.5	-9	1	.	.	.	.	.	-1.4	-5
33	O=C(Nc1ccc2nc(-c3ccco3)[nH]c2c1)c1cccs1	-1.4	-4	-9	.	.	.	.	11%	-2.0	15
34	CS(=O)(=O)n1nc(-c2ccc(Cl)cc2)nc1N	-2.7	-5	-7	9	-1	-0.3	-1.0	12%	-0.2	0
35	COc1ccc(N2C(=O)NC3CC2(C)Oc2ccc(Br)cc23)cc1OC (stereo unspecified)	-0.8	-5	2	.	.	.	.	-1%	-0.2	-1
36	c1ccc(Oc2nc(NCc3ccco3)nc(NCc3ccco3)n2)cc1	-4.4	17	-11	.	.	.	.	5%	1.1	2
37	O=C(CN1CCN(Cc2ccccc2)CC1)NNC(=O)c1ccc(Cl)cc1	-0.7	-4	2	10	19	0.5	-11	-7%	0.3	0
38	Cc1cccc(CCN=C(N)NS(=O)(=O)c2ccccc2)c1	2.4	-9	0	0	-6	3.8	-3.5	-4%	0.9	-3
39	O=C(NNC(=O)c1ccccc1F)c1ccc(-n2cncn2)c([N+](=O)[O-])c1	-2.8	0	-13	6	2	-2.1	7.1	0%	0.1	-1
40	CCn1c(CNC(=O)c2ccco2)nnc1SCC(=O)Nc1cc(C(F)(F)F)ccc1Cl	-1.9	5	5	-5	-8	0.9	3.2	-2%&1%	0.3	-3
41	CCC(C)N(CC(=O)Nc1cccc(C)c1C)C(=O)CCl (stereo unspecified)	0.5	69*	22	.	.	.	.	.	-0.9	4
42	Cc1ccccc1NC(=O)c1cccc(NC(=O)c2c(C(=O)O)cccc2[N+](=O)[O-])c1	1.3	-20	3	4	3	1.4	2.2	.	0.9	-6
43	O=C(c1cccc(Cl)c1)N1CCCc2ccccc21	1.9	4	0	-30	-32	-4.5	-3.3	.	-0.1	.
44	Cc1noc(C)c1NC(=O)Nc1ccc2c(c1)CC(=O)N([C@@H](C)CO)C[C@@H](C)[C@@H](CN(C)C(=O)Nc1cccc3ccccc13)O2	.	.	.	4&9	5&-5	2.4&4.6	-16	.	-0.4	-2
45	CN1C(=O)C(O)(CC(=O)/C=C/c2ccco2)c2ccccc21 (stereo unspecified)	6.9	-4	-35	-1	14	-2.5	-13	11%	0.0	-6
46	C=CCN1C(=O)C(Cc2ccc(OC)cc2)S/C1=N\N=C\c1cccs1 (stereo unspecified)	-3.0	11	-30	3	2	-2.2	.	-3%	-0.1	-6
47	Cc1ccccc1S(=O)(=O)Cc1ccc(C(=O)O)o1	-0.7	-1	-2	11	3	-0.9	8.6	2%	0.7	3
48	CCOc1ccc2c(c1)C(N(CCN1CCOCC1)C(=O)Nc1ccccc1)CC(C)(C)O2 (stereo unspecified)	-0.3	-1	-5	6	-3	7.3	3.5	-5%	.	.
49	Cc1nc(NCc2ccc3c(c2)OCO3)c2nnn(Cc3ccccc3)c2n1	-0.3	11	-14	.	.	.	.	17%	-0.6	36
50	COc1ccc(-n2c(COc3cccc4ccccc34)nnc2SCC(=O)NCc2ccco2)cc1	-2.3	18	21	.	.	.	.	23%	1.1	.
51	O=C(N/N=C/c1ccccc1OCc1ccccc1)c1cccnc1	1.0	-11	-8	4	-2	-0.8	5.5	.	0.2	-2
52	Cc1nn(-c2ccccc2)c(Cl)c1/C=C(\C#N)C(=O)NC(C)C	5.3	1	3	-6	-3	-0.3	11	0%	0.9	-10
53	COC(=O)[C@]1(Cc2ccccc2)N[C@H](CN(C)S(=O)(=O)c2ccc(F)cc2)[C@@H]2C(=O)N(Cc3ccccc3)C(=O)[C@@H]21	.	.	.	7	9	-2.0	0.3	-6%	0.2	10
54	O=C(CSc1nnnn1-c1ccccc1)Nc1ncc2c(n1)CC(c1ccco1)CC2=O (stereo unspecified)	2.8	-11	19	.	.	.	.	13µM*	-0.4	-1
55	CC1=[N+]([O-])C(C)(C)N(O)C1(C)C	-3.1	2	-2	16	4	2.2	2.3	-3%	-0.3	-9
56	Cc1cc(C)c(C(=O)N2CCC(N3CCC(C(=O)NC(C)C)CC3)CC2)o1	6.5	-12	7	19	14	7.0	0.5	-6%	2.0	-6
